NPYLR7 ag: mosquito NPYLR7 agonism | HEK293T NPYLR7/Galpha15, GCaMP6s calcium fluorescence | activation, % at 10 µM | hit rate 0.15% among 270,000 | AID 1259423; in the data active means activation above about 40%;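 further: 0% = vehicle and 100% = reference agonist at the receptor; some compounds past the cut are filed as inactive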
NPYLR7 ag max-min: recorded beside NPYLR7 ag, whose call it bears; activation, %; measured here: Max-Min RFU normalised activation; some inactives read as strong as hits;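 span of the calcium signal over five minutes; 0% = vehicle and 100% = native peptide agonist; compound fluorescence can raise it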
Starred values were filed as active, the others as inactive; & = joins results of further samples.

structure	NPYLR7 ag	NPYLR7 ag max-min
CCOC(=O)c1ccc(N2CCC3(CC2)C(=O)Nc2ccccc23)nc1	-4	-4
CCCCc1ccc(NC(=O)Cn2cc(OC)c(=O)cc2CSc2nc(C)cc(C)n2)cc1	-5	-13
COc1ccc(-c2nc3ccccn3c2NC(=O)CC(C)(C)C)cc1OC	9	10
CCCC1COCCN1C(=O)c1cccc(CC2CCNCC2)c1 (stereo not drawn)	4	3
c1ccc(C(Cc2nc(C3CC3)n[nH]2)c2ccco2)cc1 (stereo not drawn)	7	-3
CCCc1nc(N2CCN(C(=O)c3ccco3)CC2)c2c(-c3cccc(C(F)(F)F)c3)noc2n1	-2	-3
C#Cc1ccc(NC(=O)C2(C)CCN2C(=O)CC(c2ccccc2)c2ccccc2)cc1 (stereo not drawn)	14	12
CN(C)c1ccc(CN2CCC(C(=O)NC(c3ccc(F)cc3)c3ccc4ccccc4n3)CC2)cc1 (stereo not drawn)	3	-5
CC(C(=O)NC1CCCC1)S(=O)(=O)Cc1ccc(Cl)cc1 (stereo not drawn)	9	7
N#Cc1ccnc(N2CCN(C(=O)NCc3cccc4cccnc34)CC2)c1	1	15

Other results
structure	NPYLR7 ag	NPYLR7 ag max-min
CCCCCCCC(=O)N1CCC[C@@H]1C(=O)NC1CCCC[C@H]1N(Cc1cccc(C)c1)C(=O)c1ccc(OC)cc1 (stereo partly drawn)	18	16
O=C(NCCn1nc(-c2ccccc2)ccc1=O)C1CCCCC1	2	2
Cc1ccc2nc(CCc3ccccc3)c(NC3CCCCC3)n2c1	2	13
CC(C)N(CC(N)=O)C(=O)Cc1coc2cc3c(cc12)CCC3	2	1
CCC(CC)C(=O)NCc1ccc2c(c1)cc(C)n2C	0	-3
Cc1cccc(CN2C(=O)c3cnc(-c4cccs4)nc3C[C@@H]2CC(C)C)c1	26	15
COc1cccc(C(CC(=O)N2CCN(C/C=C/c3ccccc3)CC2)c2c[nH]c3ccccc23)c1OC (stereo not drawn)	19	14
O=S(=O)(Nc1ccc(OC2CCCC2)cc1)c1cccs1	-1	1
CCOC(=O)C1CCN(C(=O)c2cc(-c3ccc(F)cc3)nc3cc(C(C)(C)C)nn23)CC1	-4&6	-1&11
Oc1ccccc1C1=NCCN=C(C(F)(F)F)C1	3	1

Reprinted at random: 6 compounds from above, in no set order.
structure	NPYLR7 ag	NPYLR7 ag max-min
CN(C)c1ccc(CN2CCC(C(=O)NC(c3ccc(F)cc3)c3ccc4ccccc4n3)CC2)cc1 (stereo not drawn)	3	-5
CCCc1nc(N2CCN(C(=O)c3ccco3)CC2)c2c(-c3cccc(C(F)(F)F)c3)noc2n1	-2	-3
CCOC(=O)C1CCN(C(=O)c2cc(-c3ccc(F)cc3)nc3cc(C(C)(C)C)nn23)CC1	-4&6	-1&11
Cc1cccc(CN2C(=O)c3cnc(-c4cccs4)nc3C[C@@H]2CC(C)C)c1	26	15
COc1cccc(C(CC(=O)N2CCN(C/C=C/c3ccccc3)CC2)c2c[nH]c3ccccc23)c1OC (stereo not drawn)	19	14
O=C(NCCn1nc(-c2ccccc2)ccc1=O)C1CCCCC1	2	2

The list goes on.
structure	NPYLR7 ag	NPYLR7 ag max-min
CC(c1nccs1)N(C)C(=O)c1ccc(CSc2ncn[nH]2)o1 (stereo not drawn)	20	8
COc1ccccc1NC(=O)N1CCC(CN2C(=O)CSC2c2ccc(F)cc2)CC1 (stereo not drawn)	19	18
O=C1OC(/C=C/c2ccccc2)=NC/1=C/c1ccccc1C(F)(F)F	-1	-5
COC(=O)c1ccc(CN2C(=O)C(C)ON=C2Cc2ccccc2)o1 (stereo not drawn)	1	-1
Cc1ccc(NC(=O)Nc2ccc(N(C)C)c(C(=O)NC3CCCCC3)c2)cc1C	12	15
COc1cccc(CNCc2c(C(=O)N3CCCCCCC3)nc3ccc(Cl)cn23)c1	6&4	6&6
CCSCCNC(=O)c1ccc(-c2n[nH]c3c2CCc2cc(OC)ccc2-3)cc1	26	14
CC1(C(=O)NS(=O)(=O)c2ccccc2OC(F)(F)F)CCN1C(=O)c1ccccc1 (stereo not drawn)	-1	-4
C=C(NN=c1sc2ccccc2n1C)c1ccc2ccccc2c1	2	-3
Cc1ccc(CCCC(=O)Nc2ccc(OCC(C)(C)O)cc2)cc1	0	-4

(listing goes on)
structure	NPYLR7 ag	NPYLR7 ag max-min
C=CCn1c(=O)c2c(nc3n2CC(C)=NN3CCC(C)C)n(C)c1=O	14	8
CC(C(=O)Nc1ccccn1)n1nc(-c2ccccc2)ccc1=O (stereo not drawn)	4	0
Cc1cccc2nc(CSc3nnc4c(n3)[nH]c3ccccc34)cn12	6	7
CCOC(=O)C(C)Oc1ccc2c(=O)c(-c3ccc(OC(C)C)cc3)coc2c1 (stereo not drawn)	0	-9
CN(Cc1cc2ccccc2s1)C(=O)c1cc(CN2CCOCC2)on1	5	1
Nc1nc(Nc2ccccc2)cc(N2CCNCC2)n1	11	3
COc1ccc(/C=C2\N=C(c3cc(F)c(F)cc3Cl)OC2=O)c(OC)c1	-1	-2
COCCCN(CC(=O)N(CCc1ccccc1)Cc1ccc(C)o1)C(=O)C1CC1	-19	-12
Cc1cccc(C)c1NC(=S)N1CCCN(C)CC1	-4	-6
CCCCn1c(C)c(C)n2c3c(=O)n(CCN4CCCCC4)c(=O)n(C)c3nc12	-1	38

The results go on.
structure	NPYLR7 ag	NPYLR7 ag max-min
COCC(C)C1CCN(C/C=C/c2ccco2)CC1 (stereo not drawn)	13	5
CC(c1nncn1-c1ccccc1)n1cccn1 (stereo not drawn)	0	-4
O=C(COc1ncnc2sc3c(c12)CCC3)c1ccc(Cl)s1	-1	0
CC1=CC[C@@H]2CN(C(=O)c3cc(-c4cnn(C)c4C)on3)C[C@@H]2C1	-1	4
Cc1nnc(-c2ccccc2N2C(=O)c3ccccc3C2=O)[nH]c1=O	-1	-4
CC(=O)c1ccc(NC(=O)C(F)(F)C(F)(F)C(F)(F)C(F)(F)F)cc1	-3	-8
CCCc1cc(CN(C)C(=O)C2CCC(=O)N(CCN3CCOCC3)C2)[nH]n1 (stereo not drawn)	-2	-5
COc1ccc(NC(=O)CCN2CCN(Cc3ccncc3)CC2)c(C)c1	17	-2
CC1c2cccn2CCN1S(=O)(=O)c1ccccc1F (stereo not drawn)	-2	-5
CCS(=O)(=O)c1ncc(CO)n1CCc1ccccc1	17	7

(list continues)
structure	NPYLR7 ag	NPYLR7 ag max-min
CCc1nc2n(n1)C(=O)C(C(c1ccccc1F)N1CC(C)CC(C)C1)S2 (stereo not drawn)	-6	-13
COc1ccc(C=Cc2nc3cc(OC)c(SC)cc3s2)cc1	8	8
O=S(=O)(NC1CCN(CC2CC2)C1)c1cccc2cccnc12 (stereo not drawn)	1	1
O=C(COc1ccc2c(c1)OCO2)Nc1ccc(OC(F)(F)F)cc1	-6	8
O=C(NC1CCN(Cc2nnsc2Cl)CC1)c1ccccc1	3	1
CCS(=O)(=O)c1ccccc1NC(=O)C(C)c1ccc(OC)cc1 (stereo not drawn)	-6	-7
C=CCSc1nc(C2CC2)cc(-c2ccccc2)c1C#N	-7	-7
CCCn1c(CN2CCOCC2)nc2c1c(=O)[nH]c(=O)n2C	22	14
Cc1ccc(OCCN(C)CC(O)COc2ccc(CC#N)cc2)cc1 (stereo not drawn)	9	7
Cc1cc(C=CC(=O)Nc2ccc(CS(N)(=O)=O)cc2)c(C)n1Cc1ccco1	14	15

Later entries.
structure	NPYLR7 ag	NPYLR7 ag max-min
O=C(CCCc1nnc2c(=O)n(-c3ccc(Cl)cc3)ccn12)N1CCN(C2CCCCC2)CC1	0	-3
CC1(C(=O)NS(=O)(=O)c2cccs2)CCN1C(=O)C1(c2ccc(Cl)cc2)CC1 (stereo not drawn)	2	0
COc1ccc2cc(C3CN(C(=O)CN4CC(=O)NC4=O)CCO3)ccc2c1 (stereo not drawn)	-7	-9
O=C(CCCn1ncn2c(cc3occc32)c1=O)NCCN1CCOCC1	5	1
CC(NC(=O)C1CSCCS1)c1ccc(F)c(Cl)c1 (stereo not drawn)	-2	18
CC1(C(=O)NCC2CC2)CCN1C(=O)C/C=C/c1ccccc1 (stereo not drawn)	-1	-6
CC(C)C(=O)N1CCN(C(=O)c2cn(C(C)C)cc3c(=O)n(-c4ccccc4)nc2-3)CC1	1	0
CC(CCC(=O)O)[C@H]1CCC2C3CC[C@@H]4CCCC[C@]4(C)C3CC[C@@]21C (stereo partly drawn)	-4	-8
CC(=O)c1ccc(C)cc1OCC(=O)NC1CCCCC1C (stereo not drawn)	13	5
Cc1nc(C)c(Cc2ccc([N+](=O)[O-])cc2)c(N2CCN(C(=O)c3cccs3)CC2)n1	-3	1

Next records.
structure	NPYLR7 ag	NPYLR7 ag max-min
COc1ccc(CN2C(=O)CC(C(=O)Nc3ccc(OC)cc3)SC2=Nc2ccccc2)cc1 (stereo not drawn)	1	-2
Cn1cnnc1Sc1ccc(CN2CC[C@@H](c3ccc(F)cc3)[C@H](O)C2)o1	-3	-4
COc1ccc(OC)c(-c2c(C#N)c(N)nc(OC)c2C#N)c1	-5	-13
NC(=O)c1cccnc1Sc1ccc2ccccc2c1	-1	1
CC(C)(C)C(=O)NCC(=O)NCc1nc2ccc(F)cc2[nH]1	4	3
O=C(Cc1cccs1)Nc1nc2ccccc2s1	-5	-4
COc1cccc(-c2nnc(SCc3ccc(C(=O)O)cc3)n2Cc2ccccc2)c1	2	-2
CCOC(=O)Cn1c(=O)c2c(nc3n2CCN3c2cccc(C)c2)n(C)c1=O	18	9
N#CC(=Cc1cccs1)S(=O)(=O)c1ccc(Cl)cc1	0	6
Cc1[nH]n(-c2nc(-c3ccccc3)cs2)c(=O)c1N=Nc1ccccc1C(F)(F)F	-4	-8

The list continues:
structure	NPYLR7 ag	NPYLR7 ag max-min
COc1cc(Cl)c(S(=O)(=O)N2CCCCC2)cc1Cl	5	3
CCOC(=O)c1ccc2c(c1)nc(SCC(=O)NCc1ccco1)n2CCc1ccc(OC)cc1	4	3
CCCC1(C)CCCN(C(=O)c2cc(S(N)(=O)=O)c(C)o2)C1 (stereo not drawn)	-18&-3	-20&-7
Clc1ccc(-c2nc(-c3ccncc3)no2)c(Cl)c1	7	9
COc1ccc(C2=CSC3=NS(=O)(=O)CCN23)cc1OC	-3	-4
CCCc1c(C(=O)NCc2ccccn2)cnn1-c1ccc(F)cc1	-1	11
CCCOC(=NCC1CCCO1)NC(=O)c1cccc(F)c1 (stereo not drawn)	13	12
Cc1ccccc1OCC(=O)N(Cc1nc2ccccc2c(=O)[nH]1)CC1CCCO1 (stereo not drawn)	1	6
COc1cccc(NC(=O)c2c(Br)cnn2C)c1	-6	-8
Cc1cc(C)c(S(=O)(=O)Nc2ccc3c(c2)OCO3)c(C)c1-n1cnnn1	-3	-1

The list continues.
structure	NPYLR7 ag	NPYLR7 ag max-min
COC(=O)CSc1ccc(C(F)(F)F)cc1[N+](=O)[O-]	2	1
CC1CCCCN1CC(=O)N1N=C(c2ccc(F)cc2)CC1c1ccccc1Cl (stereo not drawn)	2	4
COc1cccc(CC(C2CCN(C(=O)Cc3ccccc3C)CC2)N(C)C(=O)c2cccnc2)c1 (stereo not drawn)	13	4
c1ccc(-n2cc(C3NCCc4[nH]cnc43)c(-c3ccncc3)n2)cc1 (stereo not drawn)	2	0
O=C(CSc1nnnn1-c1ccccc1)c1ccc(Br)cc1	-8	-14
COC(=O)c1cccc2c1CN(Cc1cc3c(cc1Cl)OCO3)CC2	9	10
CCc1ccccc1NC(=O)Nc1c(O)c2ccccc2oc1=O	-10	-16
O=C1CCCCCN1Cc1nc(C2(c3ccc(F)cc3)CCOC2)no1 (stereo not drawn)	4	1
CCOc1ccc(-n2cnnc2)cc1NS(=O)(=O)NCc1ccccc1	-3	-20
Cc1ccc2nc(SCc3ccccc3F)[nH]c2c1	2	9

Remaining list, next part:
structure	NPYLR7 ag	NPYLR7 ag max-min
COc1cccc(CN2CCCC3(CCN(C(=O)c4ncc(C)[nH]4)C3)C2)c1 (stereo not drawn)	2	-2
CC(C)(C)S(=O)(=O)c1ccc(N2CCCC(C(=O)N3CCOCC3)C2)cn1 (stereo not drawn)	4	2
CC(C)C(NC(=O)C(Cc1ccc(O)cc1)NC(=O)C(NC(=O)C(F)(F)F)C(C)C)C(=O)O (stereo not drawn)	-7	-12
Clc1ccccc1Nc1nc(NCC2CC2)nc2ccsc12	7	4
Cc1ccsc1CCNc1cc(N2CCN(C)CC2)nc(N)n1	8	8
CCS(=O)(=O)C(C)C(=O)Nc1ccccc1C(C)C (stereo not drawn)	6	4
C=CCOC(=O)C1C(C)=Nc2nc(SCCC)[nH]c(=O)c2C1c1ccc(OC)cc1 (stereo not drawn)	4	2
Cc1ccc2oc(-c3cccc([N+](=O)[O-])c3)cc(=O)c2c1	-4	-9
COc1cc(-c2ncnc3scc(C)c23)cc(OC)c1OC	-4	-6
COc1ccc(-c2nc3cc(C)ccn3c2NC(=O)CC(C)(C)C)cc1	-10	-4

Full records, looked up by structure. Order of values: NPYLR7 ag, NPYLR7 ag max-min
CC(C)C(NC(=O)C(Cc1ccc(O)cc1)NC(=O)C(NC(=O)C(F)(F)F)C(C)C)C(=O)O (stereo not drawn) across the screens: -7, -12
COc1cccc(CN2CCCC3(CCN(C(=O)c4ncc(C)[nH]4)C3)C2)c1 (stereo not drawn) across the screens: 2, -2
COc1ccc(-c2nc3cc(C)ccn3c2NC(=O)CC(C)(C)C)cc1 across the screens: -10, -4
Cc1ccc2oc(-c3cccc([N+](=O)[O-])c3)cc(=O)c2c1 across the screens: -4, -9

The listing continues.
structure	NPYLR7 ag	NPYLR7 ag max-min
CC(c1ccccc1)N1CCN(C(=O)c2cc(F)c(F)cc2F)CC1 (stereo not drawn)	-3	-3
C=C(C)C[C@]12CCC(=O)C=C1CCCC2=O	2	1
Cc1[nH]n(-c2ccc([N+](=O)[O-])cc2)c(=O)c1N=Nc1ccccc1C(=O)NCc1ccccc1	-15	-16
Cc1nn(C)c(C)c1C(C)C(=O)NCC1CCCCCCC1 (stereo not drawn)	21&0	15&-2
Cc1ccc(CN2CCn3c2nc2c3c(=O)n(Cc3ccccc3)c(=O)n2C)cc1	8	7
CN(C)C1Cc2cc(Cl)ccc2Sc2ccccc21 (stereo not drawn)	2	0
COc1ccc(C(=O)OCCN(C2=NS(=O)(=O)c3ccccc32)c2ccccc2Cl)c(OC)c1	-5	4

Screening results (PubChem)

A portion of the library, so the mix of outcomes need not match the whole.
